Vaccinia Venus = vaccinia inhibition (Venus reporter); Vaccinia virus Venus reporter expression, fluorescence; actives 0.46% (n = 330,000); Potency, µM (titrated, usually from 36.5 µM), inactives show top-dose activity change, negative = inhibition, hits mostly inhibitors; active means well fitted inhibition curve with a large enough effect; inconclusive means small, poorly fitted or top-dose-only effect; inactive means no such curve, though single readings can be large or run the other way; tested in A549 cells; note: nearly all actives have a fitted effect of over 30% in size; inactives centre near -10
Vaccinia mCherry = vaccinia inhibition (mCherry reporter). Vaccinia virus mCherry reporter infection, fluorescence; about a quarter of the inactives have no number. Potency, µM (doses to about 36.5 µM), for inactives: top-dose activity change, negative = inhibition, usual class: inhibitors. actives 0.63% (n = 310,000); active = well fitted inhibition curve with a large enough effect; inconclusive = small, poorly fitted or top-dose-only effect; inactive = no such curve, though single readings can be large or run the other way; tested in A549 cells; note: nearly all actives have a fitted effect of over 35% in size; inactives centre near -10
The depositor's hits bear a star; [ ] = dose if it differs, or a comment. % is set by controls: 0 for no effect and ±100 for the full control effect; potency is the fitted concentration of half-maximal effect.

Cc1ccc(-c2ccc(=O)n(CC(=O)NC(C)c3ccccc3)n2)cc1 (configuration not stated) was read as Vaccinia Venus 14% and Vaccinia mCherry -3%.
`O=C(COC(=O)c1ccccc1OCCOc1ccccc1)Nc1ccc(Br)cc1` gave Vaccinia Venus -15% and Vaccinia mCherry -5%.
`O=C(c1ccc(F)cc1)n1nc(-c2ccccc2)nc1NCc1ccco1` gave Vaccinia Venus 5% and Vaccinia mCherry -10%.
Screening Cc1cccc(OCC(=O)Nc2c3c(nn2C(C)(C)C)CS(=O)(=O)C3)c1 returned Vaccinia Venus -3% and Vaccinia mCherry -6%.
OC[C@@H]1CN(Cc2ccc(F)cc2)C[C@H](n2cnc3c(N4CCOCC4)ncnc32)O1 was read as Vaccinia Venus 4% and Vaccinia mCherry -5%.
`N#Cc1nc(COc2ccccc2)oc1N1CCOCC1` gave Vaccinia Venus -7% and Vaccinia mCherry -12%.
Screening Nc1ccc(NC(=O)NC2CCCCC2)cc1 returned Vaccinia Venus -3% and Vaccinia mCherry 5%.
CC(C)c1ccc(NC(=O)CN2C=NS(=O)(=O)c3ccccc32)cc1 was read as Vaccinia Venus -10% and Vaccinia mCherry -14%.
`Fc1ccc(OCc2nc(-c3ccc(Br)o3)no2)c(F)c1` gave Vaccinia Venus 0% and Vaccinia mCherry -15%.
For COC(=O)CC1(C(=O)OC)Nc2cc(Cl)c(Cl)cc2S(=O)(=O)N1O (configuration not stated) the results were Vaccinia Venus -17% and Vaccinia mCherry inactive.
Screening COCCNC(=O)C1(C)CCN(Cc2ccc3ccccc3c2Br)C1 (configuration not stated) returned Vaccinia Venus 0% and Vaccinia mCherry -12%.
`Cc1ccccc1N(C(=O)Cc1ccsc1)C(C(=O)NC1CCCCC1)c1ccc(F)cc1` (configuration not stated) gave Vaccinia Venus -3% and Vaccinia mCherry -14%.
NC(CSC1(c2cccc3ccccc23)c2ccccc2-c2ccccc21)C(=O)O (configuration not stated) was read as Vaccinia Venus -12% and Vaccinia mCherry -5%.
For CC(C)Nc1nc(Nc2ccc(Cl)cc2F)c2sccc2n1 the results were Vaccinia Venus -28% and Vaccinia mCherry -29%.
`CN(C)c1ccc(NC(=O)Cn2cc3c(n2)CCCC3)cc1` gave Vaccinia Venus 3% and Vaccinia mCherry -5%.
CN(C(=O)c1ccc(NC(=O)Cc2cccc([N+](=O)[O-])c2)cc1)C1CCCC1 was read as Vaccinia Venus inconclusive and Vaccinia mCherry inconclusive.
`O=C(NNC(=O)c1cc2cc(OC(F)(F)F)ccc2[nH]1)c1ccc(Cl)cc1` gave Vaccinia Venus -2% and Vaccinia mCherry -14%.
For COCCn1cnc2c1c(=O)n(Cc1ccc(Br)cc1)c(=O)n2Cc1ccccc1 the results were Vaccinia Venus -9% and Vaccinia mCherry -16%.
COc1cccc(-n2c(SCC(=O)N3CCOCC3)nnc2-c2c[nH]c3ccccc23)c1 was read as Vaccinia Venus -23% and Vaccinia mCherry -7%.
Oc1cc(CNC2CCCCC2)c(O)cc1CNC1CCCCC1 was read as Vaccinia Venus -11% and Vaccinia mCherry -9%.
For CC(=O)Nc1ccc(-c2nnn(CC(=O)c3ccccc3)n2)cc1Cl the results were Vaccinia Venus 3% and Vaccinia mCherry -13%.
O=CNNC(=O)c1cccc([N+](=O)[O-])c1 was read as Vaccinia Venus 10% and Vaccinia mCherry inactive.
CCOc1ccc(-c2[nH]nc3c2C(c2ccc4c(c2)OCO4)C(C#N)=C(N)O3)cc1OC (configuration not stated) was read as Vaccinia Venus -14% and Vaccinia mCherry -7%.
Screening COc1ccc(-n2nc3c(N4CCC(C(=O)NCc5ccccc5C)CC4)nnc(C)c3c2C)cc1 returned Vaccinia Venus inconclusive and Vaccinia mCherry -12%.
For Cc1cc(C)nc(NC(=O)CSc2nc3cc(Cl)ccc3s2)n1 the results were Vaccinia Venus 5%.
`CCS(=O)(=O)C1=NSC2=NC(=O)/C(=C\c3ccc(OC(=O)c4ccco4)cc3)C(=N)N21` gave Vaccinia Venus -17% and Vaccinia mCherry inactive.
`COc1cc(C(=O)Nc2ccc(S(=O)(=O)Nc3onc(C)c3C)cc2)cc(OC)c1OC` gave Vaccinia Venus -18% and Vaccinia mCherry inactive.
`O=C(CSc1nnc(-c2c[nH]c3ccccc23)o1)N1c2ccccc2CCc2ccccc21` gave Vaccinia Venus inconclusive and Vaccinia mCherry inconclusive.
Screening COc1ccc(-c2cn3c(n2)sc2cc(C(=O)Nc4ccc(C)cc4C)ccc23)cc1 returned Vaccinia Venus -9% and Vaccinia mCherry -17%.
Screening CCCSc1nc(N2CCCC2)c2c(c1C#N)CC(C)(C)OC2 returned Vaccinia Venus -8% and Vaccinia mCherry -3%.
CC(C)C[C@@H]1CN=C(N)N1C[C@@H]1CCCN1C[C@@H](C(C)C)N1C[C@@H](Cc2ccccc2)N(CCc2ccc(Cl)c(Cl)c2)C1=N was read as Vaccinia Venus 0% and Vaccinia mCherry -23%.
Screening COc1ccccc1N1CCN(C(=O)CSc2nc3ccccc3nc2Cc2ccccc2)CC1 returned Vaccinia Venus 4% and Vaccinia mCherry -9%.
For C/C(=N\Nc1ccccn1)c1ccc(S(=O)(=O)NCc2ccco2)cc1 the results were Vaccinia Venus -25% and Vaccinia mCherry -22%.
For Nc1nc(SCc2ccccc2[N+](=O)[O-])c2ncn(Cc3ccccc3)c2n1 the results were Vaccinia Venus -24% and Vaccinia mCherry inconclusive.
For CC(OC(=O)c1ccc2c(c1)OCO2)C(=O)NC1CCCCC1 (configuration not stated) the results were Vaccinia Venus -4% and Vaccinia mCherry -7%.
Screening Cc1cc(NC(=O)CSc2nnnn2Cc2ccccc2)no1 returned Vaccinia Venus -3% and Vaccinia mCherry 3%.
Screening O=c1ccn([C@@H]2O[C@H](COS(=O)(=O)O)[C@@H](O)[C@H]2O)c(=O)[nH]1 returned Vaccinia Venus -15% and Vaccinia mCherry inactive.
Screening O=C(NCCc1ccccc1)c1ccc(Cl)nc1 returned Vaccinia Venus -13% and Vaccinia mCherry inactive.
Cc1occc1C(=O)NNC(=O)C1CC1 was read as Vaccinia Venus -6% and Vaccinia mCherry inactive.
`COc1ccccc1N1CCN(C(=O)C2CC=CCC2C(=O)O)CC1` (configuration not stated) gave Vaccinia Venus -7%.
N#C/C(=C\c1cccc(F)c1)c1nc(-c2cc3c(ccc4ccccc43)oc2=O)cs1 was read as Vaccinia Venus 4% and Vaccinia mCherry -2%.
NC(=O)Cn1cc(/C=N\NS(=O)(=O)c2ccccc2)c2ccccc21 was read as Vaccinia Venus -10% and Vaccinia mCherry -9%.
For O=S(=O)(NN=C1CCCCCCC1)c1ccccc1 the results were Vaccinia Venus -14% and Vaccinia mCherry -19%.
For Cc1ccc(C)c(CC(=O)N2CCCC(c3cc(C(=O)NCc4ccccc4)no3)C2)c1 (configuration not stated) the results were Vaccinia Venus 2% and Vaccinia mCherry 39%[activator].
`Cc1ccc(OC(C)C(=O)Nc2ncc(Cl)cc2Cl)c([N+](=O)[O-])n1` (configuration not stated) gave Vaccinia Venus -2% and Vaccinia mCherry -5%.
Screening COc1cccc(CNn2cnnc2)c1OCc1ccc(F)cc1 returned Vaccinia Venus -15% and Vaccinia mCherry -18%.
O=C1CC(c2c(F)cccc2Cl)C2=C(COC2=O)N1 (configuration not stated) was read as Vaccinia Venus -29%.
Screening O=C(CC[C@H]1O[C@@H](n2ccc(=O)[nH]c2=O)[C@H](O)[C@@H]1O)NCCCc1ccccc1 returned Vaccinia Venus -3% and Vaccinia mCherry inactive.
Screening CCCCc1cc(=O)oc2cc(C)cc(OCc3nn[nH]n3)c12 returned Vaccinia Venus -4%.
`CN(C)P(=O)(NC(=O)c1cccn1C)N(C)C` gave Vaccinia Venus -13% and Vaccinia mCherry -5%.
`N=C1/C(=C/c2coc3ccccc3c2=O)C(=O)N=C2SC(c3ccco3)=NN12` gave Vaccinia Venus 11% and Vaccinia mCherry 0%.
For COc1ccc(-c2nc(SCC(=O)Nc3c(F)cccc3F)n[nH]2)cc1 the results were Vaccinia Venus -16% and Vaccinia mCherry -3%.
For CC(C)C(=O)Nc1cc(=O)[nH]c2ncnn12 the results were Vaccinia Venus -1% and Vaccinia mCherry 9%.
Nc1nc(-c2ccc([N+](=O)[O-])cc2)c(C(=O)Nc2ccc(Cl)cc2)s1 was read as Vaccinia Venus -21% and Vaccinia mCherry inconclusive.
CCN(c1ccccc1)c1ncnc2c1cnn2-c1ccccc1 was read as Vaccinia Venus -14% and Vaccinia mCherry 15%.
Screening COc1cc(CN2CCN(c3ccccc3C)CC2)cc([N+](=O)[O-])c1O returned Vaccinia Venus -4% and Vaccinia mCherry -18%.
COc1ccc2[nH]c(=O)c(CN(CCO)C(=O)NCc3ccccc3)cc2c1 was read as Vaccinia Venus -4% and Vaccinia mCherry -9%.
c1ccc(-c2nnc(-c3ccccc3)c(-c3c[nH]c4ccccc34)n2)cc1 was read as Vaccinia Venus -10%.
Screening Cc1ccc([C@H]2C[C@H](O)[C@@H](n3cc(COC(=O)c4ccccc4)nn3)CN2Cc2cccs2)cc1 returned Vaccinia Venus inconclusive and Vaccinia mCherry -20%.
O=C(NNC(=S)Nc1ccc(F)cc1)C1CC1c1ccc(Cl)cc1 (configuration not stated) was read as Vaccinia Venus -19% and Vaccinia mCherry -21%.

Random excerpt: 3 entries already listed, in no set order.
Nc1nc(-c2ccc([N+](=O)[O-])cc2)c(C(=O)Nc2ccc(Cl)cc2)s1 was read as Vaccinia Venus -21% and Vaccinia mCherry inconclusive.
Screening COc1cc(CN2CCN(c3ccccc3C)CC2)cc([N+](=O)[O-])c1O returned Vaccinia Venus -4% and Vaccinia mCherry -18%.
`N=C1/C(=C/c2coc3ccccc3c2=O)C(=O)N=C2SC(c3ccco3)=NN12` gave Vaccinia Venus 11% and Vaccinia mCherry 0%.

Next results follow:
Screening COc1cccc(CN(C(=O)c2cnccn2)C(C(=O)NC2CCCCC2)c2cc(OC)c(OC)c(OC)c2)c1 (configuration not stated) returned Vaccinia Venus -2% and Vaccinia mCherry inactive.
`Cc1[nH]c(=O)nc(SCc2ccc(Cl)c(Cl)c2)c1C#N` gave Vaccinia Venus 7% and Vaccinia mCherry -4%.
Screening CC1CC(C#N)N(N(C)C)C1=C(C#N)C#N (configuration not stated) returned Vaccinia Venus -9% and Vaccinia mCherry -7%.
For CSc1ncc(Cl)c(C(=O)Nc2nnc(SC)s2)n1 the results were Vaccinia Venus -12%.
`COC(=O)c1c(C)sc(-c2c(-c3ccc4c(c3)OCCO4)[nH]c3c2c(=O)n(C)c(=O)n3C)c1O` gave Vaccinia Venus inconclusive and Vaccinia mCherry inconclusive.
For COc1cc(C)ccc1OC(C)C(=O)Nc1ccc(N2CCCCC2)cc1 (configuration not stated) the results were Vaccinia Venus -7% and Vaccinia mCherry -15%.
For Cc1cc(NC(=O)C2CCCN(S(=O)(=O)c3cccc4nsnc34)C2)ccc1Br (configuration not stated) the results were Vaccinia Venus -4% and Vaccinia mCherry -16%.
Screening Fc1ccc(Nc2nc(SCc3cccc(Cl)c3)nc3ccccc23)cc1 returned Vaccinia Venus -21% and Vaccinia mCherry -17%.
For CC1(C(=O)NS(=O)(=O)c2ccccc2Cl)CCN1C(=O)c1cccc(F)c1 (configuration not stated) the results were Vaccinia Venus -8% and Vaccinia mCherry 37%[activator].
For C#CCOCCOCCOCCNc1nc(N2CCN(C(=O)CCCCCCCCCCNC(=O)[C@H]([C@@H](C)CC)n3cc(CCCCCN)nn3)CC2)nc(N2CCN(C(=O)CCCCCCCCCCNC(=O)[C@@H]([C@H](C)O)n3cc(C)nn3)CC2)n1 the results were Vaccinia Venus 11µM* and Vaccinia mCherry inconclusive.
CC1(C)Cc2ccccc2-c2nc(-c3ccccc3)oc(=O)c21 was read as Vaccinia Venus -6% and Vaccinia mCherry -9%.
COc1ccc2nc(Nc3nc4cc5c(cc4s3)OCO5)sc2c1 was read as Vaccinia Venus -13% and Vaccinia mCherry -22%.

Not a retest: entries from further up.
Screening COc1cccc(CN(C(=O)c2cnccn2)C(C(=O)NC2CCCCC2)c2cc(OC)c(OC)c(OC)c2)c1 (configuration not stated) returned Vaccinia Venus -2% and Vaccinia mCherry inactive.
`Cc1[nH]c(=O)nc(SCc2ccc(Cl)c(Cl)c2)c1C#N` gave Vaccinia Venus 7% and Vaccinia mCherry -4%.
Screening CC1CC(C#N)N(N(C)C)C1=C(C#N)C#N (configuration not stated) returned Vaccinia Venus -9% and Vaccinia mCherry -7%.
For CSc1ncc(Cl)c(C(=O)Nc2nnc(SC)s2)n1 the results were Vaccinia Venus -12%.

(next part)
`C/C(=C/CCC(C)(O)C1CC[C@@]2(C)[C@@H]3CC=C4[C@@H](CC[C@H](O[C@H]5O[C@@H](CO)[C@H](O)[C@@H](O)[C@@H]5O)C4(C)C)[C@]3(C)C(=O)C[C@]12C)CO[C@@H]1O[C@H](CO)[C@@H](O)[C@H](O)[C@H]1O` (some centres not stated) gave Vaccinia Venus -5% and Vaccinia mCherry -14%.
Screening CCOC(=O)C1CCCN(C(=O)Cn2nc(C)n3nc(-c4ccccc4)cc3c2=O)C1 (configuration not stated) returned Vaccinia Venus 3%[7.34 µM] and Vaccinia mCherry -8%[7.34 µM].
Screening O=C(O)CCCC(=O)Nc1ccc(C(=O)NCc2cccnc2)cc1 returned Vaccinia Venus -7% and Vaccinia mCherry -22%.
Screening O=C(O)c1cc(=O)[nH]c2ccccc12 returned Vaccinia Venus 6% and Vaccinia mCherry 5%.
`COc1ccc(-c2nc(CN3CCC(C(=O)NCC4CCCO4)CC3)c(C)o2)cc1OC` (configuration not stated) gave Vaccinia Venus -6% and Vaccinia mCherry inactive.

Screens (PubChem BioAssay)
